LANA-H2B inh – blocks KSHV LANA binding to histone H2A/H2B | cell-free LANA-H2A/H2B peptide, fluorescence polarization | inhibition, % (test concentration not listed) | 0.6% of 320,000 active | AID 2629; in the data active means inhibition mostly above about 10%, no sharp cut-off; inactive means mostly below about 6.7%;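 further: stock transfer was 7.5 nL into about 10 µL; 0% = median of vehicle wells and 100% = median of positive control wells; one replicate is shown; the record names a cut of 25% in any replicate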
RanGTP-Imp inh – disruptors of Ran-importin-beta complex formation – biochemical, FRET, CFP-Ran, YFP-importin-beta, homogeneous, primary screen | AID 2216 | 1.1% of 300,000 active | cell-free CFP-Ran/YFP-importin-beta FRET ratio | inhibition, % (concentration not given with the values);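 active means most replicates above 15%; inconclusive means exactly half above 15%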;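 further: 0% = DMSO wells and 100% = Ran loaded with GDP instead of GTP; wells of about 40 µL received 100 nL stock; the first replicate is given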
Calb FLC – affects C. albicans growth with fluconazole. AID 1979. 0.57% of 300,000 active. growth inhibition, % (concentration not given with the values). C. albicans CaCi-2 (fluconazole-resistant clinical isolate) + fluconazole, Alamar Blue growth, 48 h;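 active means most replicates above 75%; inconclusive means exactly half above 75%; inactive means most below 75%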;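 further: all wells also contain fluconazole at 8 µg/ml as a sub-toxic cotreatment; 0% = median of DMSO wells and 100% = median of geldanamycin control wells; wells of about 8 µL received 7.5 nL stock; the first replicate is given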
AF4-AF9 inh – blocks AF4 peptide binding to human AF9 | P42568 | AlphaScreen, biotin-AF4 peptide binding to FLAG-AF9 | inhibition, % at 10 µM | 0.47% of 350,000 active | AID 651704;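 active means every replicate reaching a set inhibition limit, whatever the replicate mean, cut at about 25% in these data; inconclusive means mean inhibition reaches that limit but some replicates miss it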;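 further: 0% = plate neutral control median and 100% = total signal loss; the record names both 10 and 1 µM as test concentration; the first replicate is given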
Target sequence (P42568 whole entry, looked up): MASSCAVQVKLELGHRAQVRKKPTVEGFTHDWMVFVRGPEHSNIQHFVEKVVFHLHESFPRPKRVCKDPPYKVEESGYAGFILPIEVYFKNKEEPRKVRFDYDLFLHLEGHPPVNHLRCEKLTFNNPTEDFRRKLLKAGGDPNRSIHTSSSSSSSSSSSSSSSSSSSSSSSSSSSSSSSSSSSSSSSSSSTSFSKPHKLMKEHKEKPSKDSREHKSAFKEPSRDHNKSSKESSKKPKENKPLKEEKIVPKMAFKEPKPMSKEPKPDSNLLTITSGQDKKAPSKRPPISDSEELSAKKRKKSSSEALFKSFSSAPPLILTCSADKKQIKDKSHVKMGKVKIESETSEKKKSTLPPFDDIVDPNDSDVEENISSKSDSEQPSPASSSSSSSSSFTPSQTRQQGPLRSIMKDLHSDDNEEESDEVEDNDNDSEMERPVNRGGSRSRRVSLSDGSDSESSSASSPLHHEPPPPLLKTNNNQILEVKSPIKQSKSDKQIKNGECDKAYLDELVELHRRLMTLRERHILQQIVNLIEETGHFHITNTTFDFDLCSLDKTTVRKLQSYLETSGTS
Vif TR-FRET – HIV-1 Vif–A3G interaction blockers – biochemical, TR-FRET, GST-Vif 1-94, biotin-A3G peptide, dose response retest, primary screen (AID 1117319); TR-FRET GST-Vif / biotin-A3G peptide binding; higher % means a stronger effect; test concentration not given here; strong numbers were not always called active; inhibition, %; hits with a dose series show IC50 in µM; 0.57% of 260,000 active;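 active means above the screen mean plus three standard deviations and confirmed in dose response; inconclusive means results disagree or hit not tested in dose response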;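 further: Vif residues 1-94 fused to GST binding biotinylated APOBEC3G peptide 110-148; 0% = full assay without inhibitor and 100% = GST in place of GST-Vif; retest series ran down from 100 µM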
Beta apoptosis – beta cell apoptosis inhibition | INS-1E cytokine-induced death, ATP luminescence, 48 h; percent of positive-control rescue, neutral wells zero | protection from apoptosis, % (concentration not given with the values) | 0.8% of 300,000 active | AID 435005;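 active means all replicates at 75% or more, or half of them and the mean; inconclusive means half reach 75% but not the mean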;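 further: 0% = cytokine-treated negative control wells and 100% = positive control rescue; higher means more ATP so stronger rescue from cytokine killing; wells of about 40 µL received 100 nL stock; the first replicate is given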
T cruzi inh – T. cruzi replication inhibition; 1.4% of 300,000 active; T. cruzi beta-gal in NIH3T3, luminescence, 90 h; inhibition, % (no concentration beside the values);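 active means mean inhibition across valid replicates above about 55%, limit read from the data; inconclusive means mean below that limit but half or more replicates reach it; inactive means mean below it, under half of replicates reach it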;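 further: signal also drops with host cell toxicity which is not excluded here; 0% = plate median of DMSO wells and 100% = zero luminescence signal; higher percent means less beta-gal luminescence so fewer parasites; stock transfer was 50 nL into about 50 µL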
A1 inh – inhibitors of the anti-apoptotic protein A1, read as caspase activation. MEF A1-2A-BIM cells, Caspase-Glo 3/7 luminescence, 3 h; percent of clofoctol response, vehicle zero. caspase activation, % (concentration not given with the values). 0.066% of 330,000 active. AID 2462;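 active means over half of replicate activation scores above 10%, or exactly half above 10 with the replicate mean above 10; inconclusive means replicate mean below 10 yet half the replicates above 10; inactive means over half of replicates below 10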;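 further: wells of about 30 µL received 50 nL stock; many hits fall short of the cut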
The depositor's hits bear a star; ? = inconclusive; . = no result given; & = joins results of further samples.

SMILES	LANA-H2B inh	RanGTP-Imp inh	Calb FLC	AF4-AF9 inh	Vif TR-FRET	Beta apoptosis	T cruzi inh	A1 inh
CCCn1c(C)cc(C(=O)COC(=O)c2ccc[nH]c2=O)c1C	-0.5	1.6	-2	.	.	.	7	-0.2
CC(C)CC(NC(=O)C1CCC(C)CC1)C(=O)NCCN1CCOCC1 (stereo not given)	1.6	-2.8	0	-0.1	.	-6	-8	-0.2
CCCc1cc(=O)oc2cc(OC(C)C(=O)NC3CC(C)(C)NC(C)(C)C3)ccc12 (stereo not given)	8.3	-6.0	-3	-3.2	.	-4	0	0.0
C[C@H]1COC(=O)[C@H](CC(=O)OC(C)(C)C)C/C=C\C[C@@H](CC(=O)N(CCO)Cc2ccccc2)C(=O)N1	-3.5	.	.	1.0	.	0	.	-0.4
CCOC(=O)CNC(=O)CCc1nnc2ccc(N3CCC(C)CC3)nn12	-2.2	-1.7	8	-2.8	-11%	-4	-16	-3.0
COc1ccc(C(=O)NCc2nnc(SCC(=O)N3CCOCC3)o2)cc1OC	-1.7	2.0	1	1.6	4%	2	-2	0.0
Cc1cccc(N2C(=O)C3C4CC(C(Br)C4Br)C3C2=O)n1 (stereo not given)	1.0	0.5	8	.	-3%	2	-1	-0.8
CN(C)/N=C/C=C1\CCC/C(=C/c2cccs2)C1=O	-3.2	-18	9	8.4	16%	0	-12	-7.0
CCOC(=O)C1CCCN(C(=O)CNC(=O)c2ccc(Br)o2)C1 (stereo not given)	-13	.	.	-2.1	.	4	.	-0.6
N/C(=N\OC(=O)/C=C/c1ccc(Br)cc1)c1ccccn1	5.3	?	-8	.	.	0	-26	-0.7
COc1ccc(OCc2cc(C(=O)NCCN3CCCc4ccccc43)no2)c(Cl)c1	-5.4	-0.2	-3	7.0	.	-4	32	0.4
CC1CC(C)(C)NCc2ccccc21 (stereo not given)	2.4	-0.9	-6	.	?	-1	.	-0.4
O=C1CC(C(=O)N2CCN(Cc3ccccc3)CC2)CN1Cc1ccccc1 (stereo not given)	2.2	-2.2	-1	-24	-9%	1	-11	0.0
OCCc1ccc(O)cc1	-2.2	.	.	-2.7	.	-5	.	-0.2
CCCOCC(O)CC(CC)C(=O)NNC(=S)Nc1ccccc1 (stereo not given)	0.3	-3.3	-4	0.5	11%	-1	0	0.0
CCOC(=O)/C(N=Nc1ccc(F)cc1)=C(/O)c1ccc([N+](=O)[O-])cc1	-1.6	12	4	.	2%	.	1	-2.4
C=CCOc1ccc(S(C)(=O)=O)cc1	0.2	3.6	-1	1.6	1%	-3	-9	-0.1
CCN=C1S/C(=C\c2cc(OCC)c(O)cc2Br)C(=O)N1CC	-10.0	3.9	23	.	17%	3	-2	-0.1
COc1ccc(C2CC(c3ccc(Br)cc3)=NN2C(=O)c2cccnc2)cc1 (stereo not given)	-0.4	5.4	20	.	19%	2	32	0.1
CCOC(=O)c1cc(CC)sc1NC(=O)C(c1ccccc1)c1ccccc1	0.9	2.1	-5	.	-6%	7	24	-0.2
NC(=O)COC(=O)c1ccc(Oc2ccccc2)cc1	-0.6	3.5	19	.	99µM*	-6	6	0.0
C[C@@H](NC(=O)c1[nH]cnc1C(=O)Nc1ccc(Cl)cc1)c1ccccc1	2.1	.	.	1.5	.	14	.	0.5
COc1ccc(/C(N)=N/OC(=O)C2CCC(=O)N2S(=O)(=O)c2ccc(C)cc2)cc1 (stereo not given)	-1.0	-2.7	1	.	-1%	-2	-10	-0.2
Cc1ccc(C)c(/C(O)=C2\C(=O)C(=O)N(Cc3cccnc3)C2c2cccnc2)c1 (stereo not given)	-0.4	1.3	7	.	-6%	-15	-13	-0.1
Cc1cc(C)c(S(=O)(=O)NCC(=O)NCc2cc(=O)n(C)c(=O)n2C)c(C)c1	2.5	1.5	.	-2.1	.	0	-6	0.5
CC(=O)N(CC1CCCO1)c1nnc(-c2cnccn2)s1 (stereo not given)	-2.2	-1.9	-4	.	7%	-2	4	1.2
CCN(C(=O)COC(=O)c1cc(S(=O)(=O)Nc2c(C)n(C)n(-c3ccccc3)c2=O)ccc1Cl)C1CCCCC1	-0.2	-3.6	5	-3.6	4%	3	4	0.0
O=C(Nc1cnn(Cc2ccccc2)c1)NC12CC3CC(CC(C3)C1)C2	1.5	-1.7	-5	.	?	-3	9	0.0
COc1ccc2c(c1OC)C(=O)OC2Nc1nc(-c2ccc([N+](=O)[O-])cc2)cs1 (stereo not given)	2.9	0.3	-11	-1.9	7%	-1	12	-2.6
CCOc1ccc(-n2nnnc2SCC(=O)Nc2cccc(O)c2)cc1	1.2	2.1	15	28*	.	1	2	-0.4
NS(=O)(=O)c1ccc(CCNC(=O)CCCC2=NS(=O)(=O)c3ccccc3N2)cc1	-0.8	4.3	-24	.	-2%	-2	14	0.1
COCCNC(=O)Cn1c(=O)n(Cc2ccc(C(=O)NCc3ccco3)cc2)c(=O)c2ccccc21	1.8	3.9	-12	.	13%	0	-4	0.5
CCN(CC)c1nc(OC)nc(-n2nnc(C(C)=O)c2C)n1	-5.4	8.6	0	.	13%	3	-7	?
COC(=O)c1cc(C(=O)OCC(=O)NC(=O)c2ccccc2)cc([N+](=O)[O-])c1	-2.8	-1.7	0	1.9	-4%	-2	6	-0.2
CN(C)C(CNC(=O)CNC(=O)Cc1cccc2ccccc12)c1ccccc1 (stereo not given)	2.8	-1.5	-4	-2.4	.	0	5	0.2
O=C(c1ccccc1)N1CCN(C(=O)c2ccc(OC(F)(F)F)cc2)CC1	2.4	3.7	7	.	0%	0	-13	0.0
O=C(CCNC(=O)Cn1ccc2ccccc2c1=O)NCCc1ccc(Cl)cc1	0.8	0.6	-3	4.8	-7%	-8	-3	-0.1
O=C(NNC(=O)C1C2CCCCC21)c1coc(=O)c(Br)c1 (stereo not given)	2.1	5.9	3	3.0	33%	-1	-12	0.4
CS(=O)(=O)c1nc(-c2ccccc2)cc(-c2ccccc2)c1C#N	-5.6	-3.4	1	.	-41%	5	9	-0.7
NCCCn1c(C(=O)c2ccc(Cl)cc2)c2ccc([N+](=O)[O-])cc2[n+]1[O-]	1.4	-5.9	66	12	.	42	44	-0.4
Cc1cc(NC(=O)c2ccc3c(c2)C(=O)N(CCC(C)C)C3=O)no1	1.6	-3.0	-6	.	3%	-2	4	0.5
O=C(Nc1ccc(Cl)cc1)C1C2C=CC3(O2)C1C(=O)N(CCN1CCCCC1)C3C(=O)NC1CCCCC1 (stereo not given)	1.6	-5.2	-6	1.9	.	-2	8	0.2
O=C(CSc1nc(-c2ccco2)cc(C(F)(F)F)n1)Nc1ccc(C(=O)N2CCCCC2)cc1	-1.1	-1.0	3	2.9	?	14	7	-0.1
CC(C)c1onc(C(=O)NC(C)c2ccccc2)c1[N+](=O)[O-] (stereo not given)	-2.8	3.3	26	-2.4	.	1	19	0.6
CC(NCC(O)COCc1cccs1)C1CC2CCC1C2 (stereo not given)	1.0	0.0	-16	.	-2%	4	13	-0.3
CCOc1ccc(/C=N/NC(=O)c2[nH]ncc2Br)c(O)c1	-0.6	0.4	114*	1.1	-6%	77*	55*	-9.3
CC1CCc2cc(F)ccc2N1C(=O)CSc1nnc2c(n1)[nH]c1ccccc12 (stereo not given)	3.1	-4.1	-3	-3.0	12%	0	38	0.5
COc1cccc(NC(=O)N2CCCC(C(=O)NC3CCCCC3C)C2)c1 (stereo not given)	-1.0	-2.3	-5	0.9	.	-2	10	0.0
CC(=O)c1ccc(NS(=O)(=O)c2ccc(N/C=C/C(=O)c3ccc(F)cc3)cc2)cc1	6.3	6.2	-2	-2.9	-7%	1	-2	0.0
O=C(O)c1ccc(/C=N/NC(=O)c2cc(-c3ccc4c5c(cccc35)CC4)n[nH]2)cc1	4.0	?	-11	-0.2	4%	-3	-12	0.8

Other records:
SMILES	LANA-H2B inh	RanGTP-Imp inh	Calb FLC	AF4-AF9 inh	Vif TR-FRET	Beta apoptosis	T cruzi inh	A1 inh
CC(=O)NC(CCCCNC(=S)NC1CCCCC1)C(=O)O (stereo not given)	-0.1	?	-20	-9.2	22%	0	-6	0.1
CCC(C(=O)NC1CCCCCC1)n1nc(C)n2c(cc3occc32)c1=O (stereo not given)	-3.0	4.1	-8	-1.9	.	0	4	-0.3
O=C(COc1ccc2c3c(c(=O)oc2c1)CCC3)Nc1ccc(CN2CCOCC2)cc1	-0.7	-0.9	1	-3.1	.	-2	18	-0.7
COc1ccccc1C(CNC(=O)c1cccc(S(=O)(=O)Nc2ccc(C)cc2)c1)N(C)C (stereo not given)	-3.9	-0.3	-5	6.6	-4%	0	3	-0.6
Cc1cc(SCC(=O)OCC(=O)c2c(N)n(C)c(=O)n(C)c2=O)c(C)cc1Br	7.6	0.8	0	-1.8	0%	-7	-3	-1.2
Cc1[nH][nH]c(=O)c1C	1.5	.	.	-53	.	-1	.	0.1
Cc1ccccc1NC(=S)NC1(C)CCS(=O)(=O)C1 (stereo not given)	-2.3	-4.8	?	1.1	0%	-1	-3	-0.1
CCC(C(=O)Nc1ccccc1Cl)n1nc(C)c2c(C)n(-c3ccccc3)nc2c1=O (stereo not given)	5.5	1.8	-3	-0.8	.	-1	0	0.9
Cc1cc(NC(=O)CN2C(=O)NC(C)(CCc3ccccc3)C2=O)no1 (stereo not given)	3.0	?	-33	-1.2	-4%	5	-4	-0.9
COc1ccc(Cl)cc1N1CC(c2nc3ccccc3[nH]2)CC1=O (stereo not given)	2.1	1.1	-2	7.1	6%	-2	3	0.0

Looked up above:
Cc1cc(NC(=O)CN2C(=O)NC(C)(CCc3ccccc3)C2=O)no1 (stereo not given) in Vif TR-FRET → -4%
Cc1[nH][nH]c(=O)c1C in AF4-AF9 inh → -53
CCC(C(=O)NC1CCCCCC1)n1nc(C)n2c(cc3occc32)c1=O (stereo not given) in A1 inh → -0.3

(cont.)
SMILES	LANA-H2B inh	RanGTP-Imp inh	Calb FLC	AF4-AF9 inh	Vif TR-FRET	Beta apoptosis	T cruzi inh	A1 inh
O=S(=O)(c1ccc(OCC(O)CN2CCC(Cc3ccccc3)CC2)cc1)N1CCOCC1 (stereo not given)	-11	0.3	-6	-7.2	-11%&69%	-4	9	0.2
COc1cc(OC)nc(Oc2ccccc2C(=O)Oc2ccc(Cl)cc2)n1	2.3	-4.4	13	-5.0	18%	4	-4	-0.1
Cn1c(N)c(C(=O)CSc2nnnn2-c2ccccc2)c(=O)n(C)c1=O	0.4	3.5	15	-23	-7%	-5	-13	0.8
CN(CC(=O)Nc1ccc(F)c(F)c1F)C(=O)C1=COCCO1	-3.1	6.3	4	-2.0	.	0	-9	1.1
Cc1cnc(C(=O)OCC(=O)N2CCC(C)CC2)cn1	-2.0	.	.	-12	.	-7	.	-0.5
CCOC(=O)c1cnn(Cc2ccc(C)cc2)c1N	-1.7	-2.1	-10	0.5	8%	4	1	-0.2
CC(C)(C)C(O)(CC#CCN1CCCC1)c1ccccc1 (stereo not given)	-1.8	.	-39	0.5	-3%	-3	40	-0.4
COc1cccc(CN2CCN(CCc3ccccc3)C(CCO)C2)c1OC (stereo not given)	-3.0	-1.8	-3	0.5	?	7	3	-0.4

Source: PubChem BioAssay (several laboratories)

No enrichment for hits (roughly 4.3% active in at least one column).
